SmPrx2 inh – Schistosoma Mansoni Peroxiredoxins (Prx2); hit rate 0.07% among 65,000; S. mansoni Prx2 activity coupled to TGR/GSH (TGR is thioredoxin glutathione reductase), NADPH fluorescence loss, qHTS; some inactives read as strong as hits; Potency, µM; Schistosoma mansoni peroxiredoxin 2 (Prx2); active means full or partial inhibition curve with a strong effect at the top dose; inconclusive means weaker partial or single-point curve; inactive means no accepted curve; further: series up to 57 µM; many of its hits are not listed in these tables
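Enzyme mix: 100 uM NADPH, 25 nM TGR, 700 uM GSH, 50 nM Prx2 in 100 mM phosphate pH 7.4, 10 mM EDTA, 0.01% Tween-20. 15 min RT with compound; NADPH/GSH added, H2O2 starts reaction; NADPH fluorescence read 8 min.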
LT uptake inh – qHTS Assay for Anthrax Lethal Toxin Internalization | Cells, anthrax lethal toxin internalization, FRET ratio (460/530) | Potency, µM (series often up to 40 µM), inactives show at the highest dose activity change, negative = inhibition, most hits filed as inhibitors | hit rate 0.67% among 70,000; active = well fitted falling ratio curve with the 530 nm signal flat; inconclusive = other ratio curves, or a change in one channel alone; inactive = flat curves in the ratio and both channels; the % refers to the ratio; further: on the % scale 0 is the no-effect control and ±100 the full control effect; nearly all actives have a fitted effect of over 50% in size; tested in ME-180 cells; beta-lactamase reporter
Active calls of the source: *; ? = inconclusive; . = not tested or not shown; & = joins results of further samples; [ ] = another dose, or the depositor's remark. Potency means the concentration at half of the fitted maximal effect. This is a subset. The share of hits here may be higher or lower than overall.

Every second line gives: SmPrx2 inh | LT uptake inh
COc1ccc2c(c1)CCC1C2CC[C@]2(C)[C@H](NCCCCCCN3C(=O)C=CC3=O)CC[C@@H]12 (stereo not given in full)
 : >57 | 3%
O=S(=O)(Cc1ccccc1Cl)N1CCCCC1
 : >57 | 8%
COc1ccc(C2CC(=O)C(C=NCCN3CCNCC3)=C(O)C2)cc1OC (stereo not given)
 : >57 | -7%
CCCP(=O)(CC(=O)N(CC)CC)c1ccccc1 (stereo not given)
 : . | -5%
Cc1nn(-c2ccccc2)c2sc(C(=O)N(Cc3ccco3)C(C)C(=O)NC(C)(C)C)cc12 (stereo not given)
 : >57 | -4%
O=C(NCCC1=CCCCC1)C1CCCN(c2nc3ccccc3o2)C1 (stereo not given)
 : >57 | 7%
CCCCS(=O)(=O)NC1=NCN(C2CCN(Cc3ccccc3)CC2)CN1
 : >57 | -5%
O=C(COc1ncnc2ccccc12)N1CCOCC1
 : >57 | 0%
Cc1nc2nc(C)c(CCC(=O)NCc3ccc4c(c3)OCO4)c(C)n2n1
 : >57 | -16%
CCN(CC)S(=O)(=O)N1CCC(C(=O)NCc2ccc(C)cc2)CC1
 : >57 | 4%
O=C1CCC(C(=O)NC2(C(=O)NC3CCCCC3)CCCCC2)N1 (stereo not given)
 : >57 | 8%
Cc1ccc(NC(=O)C2CCCN(S(=O)(=O)c3c(C)noc3C)C2)c(C)c1 (stereo not given)
 : >57 | -9%
Cc1ccc2cc(CCNC(=O)C3CCCC3)c(=O)[nH]c2c1
 : >57 | 2%
O=C(O)[C@@H](O)[C@@H](O)[C@H](O)C(=O)CO
 : >57 | -3%[8 µM]
O=S(=O)(O)c1cc(O)c2c(N=Cc3ccccc3O)cc(S(=O)(=O)O)cc2c1
 : >57 | 1%[8 µM]
O=C1CC2(CCCC2)CC(=O)N1CCCCN1CCN(c2ncccn2)CC1
 : >57&>57&>57 | -8%
COc1ccccc1CNc1ncncc1-c1ccc2c(c1)OCO2
 : >57 | -4%
CCCN(CCC)S(=O)(=O)c1ccc(C(=O)Nc2nnc(-c3cccc(OC)c3)o2)cc1
 : >57 | -2%
Nc1nc(CN2CCN(Cc3ccccc3)CC2)nc(Nc2ccc3c(c2)OCCO3)n1
 : >57 | -15%
O=C1CC(c2ccccc2)n2nc(NC(=O)c3cccs3)nc2N1 (stereo not given)
 : >57 | -9%

The listing continues:
Every second line gives: SmPrx2 inh | LT uptake inh
COCCn1c(C)cc(C(=O)COC(=O)c2c(C)nn(Cc3ccccc3)c2C)c1C
 : >57 | 0%
COCCn1c(=O)c(CCc2ccccc2)nc2cnc(Oc3cccc(Cl)c3)nc21
 : >57 | ?
CCCc1cc(=O)[nH]c(SCC(=O)N2CCC(C(=O)OCC)CC2)n1
 : >57 | 14%
CC(C)c1ccc(OCC(O)Cn2cnc3ccccc32)cc1 (stereo not given)
 : . | -3%
O=C(CSc1nnc(-c2ccco2)n1Cc1ccccc1)NC(=O)NCc1ccccc1
 : >57 | -7%
CCCn1c(SCC(=O)Nc2ccccc2C(=O)OCC)nc2c1c(=O)n(C)c(=O)n2C
 : >57 | -5%
O=c1oc2ccccc2n1Cc1ccccc1Cl
 : >57 | ?
CCC1CO1 (stereo not given)
 : . | 3%
O=C(CCS(=O)CCC(=O)NCc1ccccc1)NCc1ccccc1
 : >57 | -1%
Cc1cc(C)n(C(=O)c2cccc(S(=O)(=O)N3CCCC3)c2)n1
 : >57 | 6%
Cn1c(COc2ccc3ccccc3c2)nnc1SCC(=O)O
 : >57 | 2%
CCN(CCC(=O)Nc1cc(OC)cc(OC)c1)Cc1ccccc1
 : >57 | -8%
CCN(CC)CCOC(=O)C1(C2CCCCC2)CCCCC1
 : >57&>57 | 11%[3.58 µM]
c1ccc(Cn2c(Sc3nnnn3-c3ccccc3)nnc2-c2ccccc2)cc1
 : >57 | 5%
O=C(Cn1nc(Cl)nc1Cl)Nc1ccccc1
 : >57 | -8%
O=S(=O)(NCC(c1cccnc1)N1CCN(c2ccc(F)cc2)CC1)c1ccc(F)cc1 (stereo not given)
 : >57 | -2%
CN(C)CCSCCO
 : >57 | -16%[8 µM]
Cc1csc(NC(=O)C(NS(=O)(=O)c2ccc(Br)s2)c2ccccc2)n1 (stereo not given)
 : >57 | -11%
COc1ccc(C)cc1S(=O)(=O)N1CCCC(C(=O)NCC2CCCO2)C1 (stereo not given)
 : >57 | 10%
COCCn1c(C)cc(C(=O)CSc2nc(C)nc3sc4c(c23)CCC4)c1C
 : >57 | 1%

Later entries
Every second line gives: SmPrx2 inh | LT uptake inh
Cc1c(C(=O)N2CCN(c3ncccn3)CC2)sc2nc3n(c(=O)c12)CCCC3
 : >57 | 17%
COc1cc2nc(C3CCC3)n(NC(=O)C3CCCC(OC)C3)c(=O)c2cc1OC (stereo not given)
 : >57 | -22%
COc1ccc(C(=O)/C=C(\N)C(F)(F)F)c(O)c1
 : . | 6%
Cc1cccc(NC(=O)COc2ccccc2C)n1
 : >57 | -12%
CCCn1c(=O)c(C(=O)Nc2ccccc2C(=O)OC)c(O)c2ccccc21
 : >57 | -1%
COc1ccc(CC(=O)N2CC3(C)CC2CC(C)(C)C3)cc1OC (stereo not given)
 : . | -4%
Cc1ccc(N2CC(C(=O)Nc3ccc4c(c3)OCCO4)CC2=O)cc1 (stereo not given)
 : >57 | ?
COc1ccc(CCNc2oc(COc3ccc(Br)cc3)nc2C#N)cc1OC
 : >57 | ?
O=C(C1CCC(=O)N1Cc1ccccc1Cl)N1CCN(c2ccc(F)cc2)CC1 (stereo not given)
 : >57 | 3%
Cc1cc(C)c(C#N)c(SCC(=O)Nc2nnc(-c3ccccc3)s2)n1
 : >57 | -2%
CCOC(=O)c1oc2ccccc2c1CN1CCN(c2ccccc2)CC1
 : >57 | -12%
FC(F)(F)c1ccc(N2CCN(c3cc(-c4ccccc4)nc4ncnn34)CC2)nc1
 : >57 | 5%
CCOC(=O)c1cnc(SCc2ccccc2)nc1N
 : >57 | -21%
O=C(CN1C(=O)C2C3C=CC(C3)C2C1=O)NCCc1ccccc1Cl (stereo not given)
 : >57 | 9%
CN1/C(=C\C(=O)COC(=O)Cn2nnc(-c3ccccc3)n2)C(C)(C)c2ccccc21
 : >57 | 4%
COc1ccccc1C(=O)N1CCC(C(=O)c2ccc(F)cc2)CC1
 : >57 | -3%
CCOc1ccc2c(c1)c1nnc(SCC(=O)N3CCCCC3C)nc1n2C (stereo not given)
 : >57 | 10%
CS(=O)(=O)N(CC(=O)O)c1cc(Cl)cc(Cl)c1
 : >57 | -12%
NCc1cc(=O)[nH]o1
 : >57&>57 | -8%&0%
c1ccc(CCc2nn3c(Cn4nnc5ccccc54)nnc3s2)cc1
 : >57 | ?

The results go on.
compound	SmPrx2 inh	LT uptake inh
C=C(Br)Cn1c(CC(C)C)nc2ccccc21	.	-23%
COC(=O)n1c(=O)oc2ccccc21	>57	-4%
CCCCOC(=O)c1cccc(NC(=O)CCC(=O)O)c1	.	0%
O=c1cc(N2CCN(c3ccccc3)CC2)[nH]c(=O)n1Cc1ccc(F)cc1	>57	-2%
CC(=O)Nc1ccc(-c2nc3c(C)cccc3[nH]2)cc1	>57	-4%
Cc1nnc(SC(C)C(=O)Nc2ccc(Cl)cn2)n1Cc1ccccc1 (stereo not given)	>57	3%
CCOC(=O)Cc1csc(NC(=O)CSc2nnc(-c3ccc(OC)cc3)n2C)n1	>57	8%
CN1[C@@H](CC(=O)c2ccccc2)CCC[C@@H]1C[C@@H](O)c1ccccc1	>57&>57&>57	-5%
c1ccc2c(c1)[nH]c1nc(SCCN3CCOCC3)nnc12	>57	-12%
O=[N+]([O-])c1c2ccccc2cc2ccccc12	.	-21%

4 compounds picked at random from those above:
compound	SmPrx2 inh	LT uptake inh
O=[N+]([O-])c1c2ccccc2cc2ccccc12	.	-21%
CN1[C@@H](CC(=O)c2ccccc2)CCC[C@@H]1C[C@@H](O)c1ccccc1	>57&>57&>57	-5%
C=C(Br)Cn1c(CC(C)C)nc2ccccc21	.	-23%
O=c1cc(N2CCN(c3ccccc3)CC2)[nH]c(=O)n1Cc1ccc(F)cc1	>57	-2%

New compounds follow.
compound	SmPrx2 inh	LT uptake inh
O=C1C2ON(c3ccccc3)C(c3ccccc3F)C2C(=O)N1c1ccccc1 (stereo not given)	>57	-4%
CCOC(=O)Cc1nnc(NC(=O)CSc2ccccc2)s1	>57	?
O=C(NCCc1ccccn1)C1CCCN(S(=O)(=O)Cc2ccccc2)C1 (stereo not given)	>57	13%
Cc1cc(C)n(-c2cc(C)c(C)cc2Br)n1	>57	-6%
O=C(CC(C(=O)O)C1CCCO1)NCc1ccccc1 (stereo not given)	.	?
O=C(Nc1cccnc1)Nc1ccccn1	.	-7%
O=C(Cn1nc(C(F)F)cc1C1CC1)NCCC1=CCCCC1	>57	-8%
COC(=O)c1cn(NC(=O)c2cnccn2)c(=O)c2ccccc12	>57	-14%
Cc1ccc(NC(=O)CCNS(=O)(=O)c2ccc3c(c2)oc(=O)n3C)cc1C	>57	8%
COc1ncc2nc(CCc3ccccc3)c(=O)n(CCc3ccccc3)c2n1	>57	3%

(listing goes on)
compound	SmPrx2 inh	LT uptake inh
Cc1ccc(S(=O)(=O)N2CCCCC2)cc1C(=O)Nc1ncn[nH]1	>57	-13%
COc1ccc(OC)c(NC(=O)c2cc3sccc3n2C)c1	>57	?
Cn1c(C(=O)O)c(CC(=O)NCc2cccnc2)c2ccccc21	>57	12%
CN(C)C(C(=O)NC1CCCCC1)c1ccc(Cl)cc1 (stereo not given)	>57	3%
O=c1cnn(-c2ccccc2)c(-c2ccccc2)c1	>57	8%
C[C@@H](C(=O)Nc1ccc2ccccc2c1)[C@@H]1C[C@@]1(C)[C@@H](NC(=O)c1cnccn1)c1ccccc1	>57	?
Cc1cc(C)n(CC(O)COCc2ccco2)n1 (stereo not given)	>57	-2%
COc1ccc(-n2c(=O)c(C)nc3cnc(Nc4cccc(OC)c4)nc32)cc1	>57	-4%
CCCCCOC(=O)NCC(O)c1ccccc1 (stereo not given)	.	-5%
COc1ccc(C(C)=O)cc1COC(=O)c1ccc(OCc2c(C)noc2C)cc1	>57	-1%

Next entries follow:
compound	SmPrx2 inh	LT uptake inh
CCCCn1c(SCC(=O)Nc2cc(C)on2)nc2ccccc2c1=O	>57	-4%
CC(C)NC(=O)CN1CCN(c2ncccn2)CC1	>57	10%
O=C(O)c1[nH]c2ccccc2c1CC(=O)N1CCOCC1	>57	?
C=CCn1c(-c2ccc(OC)c(OC)c2)cs/c1=N\c1ccccn1	.	?
COc1ccc(N2C(=O)CC(NC34CC5CC(CC(C5)C3)C4)C2=O)c(OC)c1 (stereo not given)	>57	-8%
N#Cc1ccccc1OCC(=O)Nc1c(C(=O)C2CC2)oc2ccccc12	>57	0%
OCCOCCn1c(-c2ccccc2)nc(=S)c2c1CCCC2	>57	-4%
O=c1cnc2cnc(N3CCNCC3)nc2n1Cc1ccc(F)cc1	>11	?
Cc1cc(/C=N/n2cnnc2)c(C)n1-c1cccc(Cl)c1	.	12%
CC1(C)CC(=O)CC(=NCC(=O)O)C1	.	-16%

(continued)
compound	SmPrx2 inh	LT uptake inh
Cc1cc(C(=O)N2CCCc3ccccc32)no1	>57	3%
CCCCn1c(O)c(C(CC)=NCCc2ccccc2)c(=O)[nH]c1=O	>57	?
CC(NC(=O)c1cccc(C(F)(F)F)c1)C1CCCO1 (stereo not given)	>57	2%
O=C(Nc1cccc(F)c1)N1CC2(CCN(C(=O)c3cnccn3)CC2)C1	>57	-11%
COc1ccccc1N1CCN(C(=O)CSc2ncccc2-c2nc3ccccc3[nH]2)CC1	>57	5%
COc1ccc(Cn2nnnc2C(c2ccc(N(C)C)cc2)N2CCC(C)CC2)cc1 (stereo not given)	>57	-6%
CC(C)c1cc(=O)oc2c3c4c(cc12)CCCN4CCC3	>57	?
CS(=O)(=O)Nc1ccc(C(=O)N2CCCCC2)cc1	>57	-3%
O=S(=O)(c1cccc(S(=O)(=O)N2CCC(Cc3ccccc3)CC2)c1)N1CCOCC1	>57	-1%
Cc1cccc(OCCCC(=O)Nc2nccs2)c1	>57	14%

Next part:
compound	SmPrx2 inh	LT uptake inh
Cc1ccccc1C(=O)Nc1cccc(N)c1	>57	10%
CCN1CCN(C(c2cccs2)C(C)NC(=O)C(C)C)CC1 (stereo not given)	>57	-1%
O=C1CCc2cc(S(=O)(=O)NC(Cc3ccccc3)C(=O)NCC3CCCO3)ccc2N1 (stereo not given)	>57	4%
O=C(C1CCN(S(=O)(=O)c2cccc3cccnc23)CC1)N1CCN(c2ccc(Cl)cc2)CC1	>57	?
N#Cc1cnn(-c2ccccc2)c1N	>57	-10%
COCCN(C(=O)COc1ccccc1)c1nnc(-c2cccnc2)s1	>57	8%
Cn1cccc1C(=O)N1CCC2(CCCN(C(c3ccccc3)c3ccccc3)C2)CC1	>57	8%
O=C(O)[C@H]1CCCC[C@@H]1C(=O)Nc1nc2ccccc2[nH]1	>57	?
Cc1cccc(-c2nnc(-c3ccc(N)cc3)o2)c1	>57	5%
CCSc1ncc(Cl)c(C(=O)Nc2ccc(S(=O)(=O)Nc3onc(C)c3C)cc2)n1	?	2%
O=C(C1CCN(S(=O)(=O)N2CCOCC2)CC1)N1CCC2(CC1)OCCO2	>57	-2%

Record cards, from the list above.
`Cc1ccccc1C(=O)Nc1cccc(N)c1` as listed: SmPrx2 inh: >57; LT uptake inh: 10%
`Cn1cccc1C(=O)N1CCC2(CCCN(C(c3ccccc3)c3ccccc3)C2)CC1` as listed: SmPrx2 inh: >57; LT uptake inh: 8%

Screens as filed in PubChem BioAssay.
